Compound activity (PubChem)
AID504770 – E. coli YBA685 growth inhibition, screen for V. cholerae RctB inhibitors. E. coli YBA685 rctB-dependent plasmid, OD600 growth, 3 h; stronger effect = lower value. z-score (no concentration beside the values). 0.27% of 130,000 active;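 active means z-score under -2 on both plates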;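 further: wells of about 30 µL received 100 nL stock; score is relative to mean and SD of the test wells; the first replicate is given; strong numbers were not always called active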
Ba CapD inh – blocks the Bacillus anthracis CapD enzyme; purified CapD enzyme, fluorescence intensity read-out; stronger effect = lower value; some hits fall short of the stated cut; z-score (concentration not given with the values); 0.23% of 140,000 active;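 active means z-score under -4 in either of two replicates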;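 further: stock transfer was 100 nL into about 40 µL; score is relative to mean and spread of the plate; one replicate is shown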
Starred values were filed as active, the others as inactive.

How did COc1ccc(CCNC(=O)CSc2nc3ccccc3c(=O)n2CC2COc3ccccc3O2)cc1OC (centres undefined) do in these assays?
Ba CapD inh: -1.4

What do the screens show for `CC(=O)N1CCN(CC(=O)N(Cc2ccccc2)c2cccc(C)c2)CC1`?
AID504770: 0.05

How did CCOc1ccc(S(=O)(=O)N2CCN=C2c2ccccc2)cc1C do in these assays?
AID504770: -0.7; Ba CapD inh: -0.24

What do the screens show for `N=C(N)SCCCc1nc2ccccc2[nH]1`?
AID504770: -0.15; Ba CapD inh: 0.05

What do the screens show for `COc1ccc(C2Nc3ccccc3NC3=C2C(=O)CC(c2ccc(Cl)cc2)C3)c(OC)c1OC` (centres undefined)?
Ba CapD inh: -0.74

Results for Cc1ccccc1OCC(=O)NC1CC2CCC1C2 (centres undefined) ?
AID504770: -0.1; Ba CapD inh: 0.01

What do the screens show for `CCCN1C(=O)/C(=C/c2ccc(-c3cccc(C(F)(F)F)c3)o2)NC1=S`?
AID504770: 0.45; Ba CapD inh: -0.34

Results for CCCCN1C(=O)CC(N2CCN(c3ccc(F)cc3)CC2)C1=O (centres undefined) ?
AID504770: -0.55; Ba CapD inh: -0.13

Results for CC1C(=O)Nc2ccccc2N1C(=O)C1CC1 (centres undefined) ?
AID504770: -0.3; Ba CapD inh: -0.23

Results for CC(=O)Oc1ccc2c(=O)c(-c3ccccc3)coc2c1C ?
AID504770: 0.9; Ba CapD inh: -0.95

What do the screens show for `Cc1c(C(=O)c2ccccc2C(=O)O)sc2ccccc12`?
Ba CapD inh: -0.72

Results for Cc1ccc(COc2coc(CN3CCc4ccccc43)cc2=O)cc1 ?
AID504770: 1.2

Results for CCn1c(-n2nc(C)cc2N)nc2ccccc21 ?
AID504770: -0.15; Ba CapD inh: 1

What do the screens show for `Cn1c(/C(C#N)=C(\O)c2ccc(F)cc2)nc2ccccc21`?
AID504770: 1.5; Ba CapD inh: -0.58

What do the screens show for `COc1ccc(C[N+](C)(C)C2CCCCC2)cc1OC`?
AID504770: -0.6; Ba CapD inh: -0.45

How did O=C(NCCCO)c1ccc(Cl)cc1 do in these assays?
AID504770: 1.6; Ba CapD inh: -0.1

What do the screens show for `O=C1Nc2ccccc2S/C1=C\C(=O)N1CCOCC1`?
AID504770: -0.8; Ba CapD inh: -1.5

What do the screens show for `CCc1nc(NCCO)c(C#N)c2c1CCCC2`?
AID504770: 0.1; Ba CapD inh: 83

How did CCS(=O)(=O)N1CCc2cc(C(=O)COC(=O)c3cc(Cl)ccc3O)ccc21 do in these assays?
AID504770: 0.1

How did O=C(/C=C/N1CCOCC1)c1cc2ccccc2o1 do in these assays?
AID504770: -0.55

What do the screens show for `O=c1[nH]c(=S)c2c(n1Cc1ccco1)CCC2`?
AID504770: -0.9; Ba CapD inh: -3

How did CNC(=S)NCCCc1ccccc1 do in these assays?
AID504770: -0.4; Ba CapD inh: 0.06

Results for COC(=O)c1nn(-c2ccc(OC)cc2)c(=O)cc1Oc1cccc(Cl)c1 ?
Ba CapD inh: 0.1

What do the screens show for `C=CCSc1ncnc2c1cnn2-c1ccccc1`?
AID504770: -0.15; Ba CapD inh: 1.9

Overlap with the part before: six compounds, followed by the next part.
How did CCS(=O)(=O)N1CCc2cc(C(=O)COC(=O)c3cc(Cl)ccc3O)ccc21 do in these assays?
AID504770: 0.1

How did O=C(/C=C/N1CCOCC1)c1cc2ccccc2o1 do in these assays?
AID504770: -0.55

What do the screens show for `O=c1[nH]c(=S)c2c(n1Cc1ccco1)CCC2`?
AID504770: -0.9; Ba CapD inh: -3

How did CNC(=S)NCCCc1ccccc1 do in these assays?
AID504770: -0.4; Ba CapD inh: 0.06

Results for COC(=O)c1nn(-c2ccc(OC)cc2)c(=O)cc1Oc1cccc(Cl)c1 ?
Ba CapD inh: 0.1

What do the screens show for `C=CCSc1ncnc2c1cnn2-c1ccccc1`?
AID504770: -0.15; Ba CapD inh: 1.9

What do the screens show for `COc1cccc(OCc2ccccc2)c1C#N`?
Ba CapD inh: -0.005

What do the screens show for `O=c1n(CN2CCOCC2)c2ccccc2n1CN1CCOCC1`?
AID504770: -0.5; Ba CapD inh: -0.55

What do the screens show for `CC(=O)Nc1ccc(C(=S)NCCCO)cc1`?
AID504770: -1.1

Results for COc1ccc(NC(=S)SC)cc1OC ?
AID504770: 0.1; Ba CapD inh: -0.55

How did O=C(CCc1nc2sc3c(c2c(=O)[nH]1)CCCC3)NC1CCCC1 do in these assays?
AID504770: 0.3; Ba CapD inh: 0.29

How did CSc1ccc(C2Oc3ccccc3C3=C2C(c2cccs2)n2ncnc2N3)cc1 (centres undefined) do in these assays?
Ba CapD inh: -0.61

How did NC(=O)c1cn(-c2ccc(F)cc2)c(=O)c2ccccc12 do in these assays?
AID504770: 0.95; Ba CapD inh: 2.7

What do the screens show for `O=C(N/N=C/c1cccc(F)c1)c1ccc([N+](=O)[O-])cc1Cl`?
Ba CapD inh: -0.23

Results for COc1ccc(N2CCN(C(=O)c3cccnc3SCc3cccc(Br)c3)CC2)cc1 ?
Ba CapD inh: -1

Results for CCSc1nsc(SCC)c1C(=O)O ?
AID504770: 0.5; Ba CapD inh: 0.81

What do the screens show for `CCNc1[nH]c(=S)nc2c1cnn2-c1ccccc1`?
AID504770: -0.55; Ba CapD inh: -0.19

How did CCOC(=O)C1=C(C)OC(N)=C(C#N)C1c1ccccc1C(F)(F)F (centres undefined) do in these assays?
Ba CapD inh: 1.6

What do the screens show for `CCN(Cc1ccccc1)C(=O)c1nn(C)c(=O)c2ccccc12`?
AID504770: 0.1

What do the screens show for `CC1CC(=O)c2cnc(N3CCCCC3)nc2C1` (centres undefined)?
AID504770: 0.05; Ba CapD inh: -1.1

How did CCCCOc1ccc(C(=O)OCCN2C(=O)C3C4c5ccccc5C(c5ccccc54)C3C2=O)cc1 (centres undefined) do in these assays?
Ba CapD inh: -0.48

What do the screens show for `COc1ccc(CCn2c(C)nc(=O)c(-c3ccccc3)c2C)cc1OC`?
AID504770: -0.6; Ba CapD inh: -0.63

How did Cc1ccc2[nH]c(=O)c(C3CC(c4ccccc4)=NN3C(=O)CCC(=O)O)cc2c1 (centres undefined) do in these assays?
Ba CapD inh: 0.92

How did Cc1onc(-c2c(Cl)cccc2Cl)c1C(O)c1ccccc1 (centres undefined) do in these assays?
Ba CapD inh: 0.56

Results for CC(NC(=O)c1cc(=O)c2ccccc2o1)C(c1ccccc1)N1CCOCC1 (centres undefined) ?
AID504770: -0.55

Results for Cc1ccccc1-c1nc(CSCC(=O)N2CCC(C(N)=O)CC2)c(C)o1 ?
AID504770: -0.95; Ba CapD inh: -0.56

What do the screens show for `O=CNc1cccc(O)c1`?
AID504770: 0.95

How did CCCN1CCC(NC(=S)NCCOC)CC1 do in these assays?
AID504770: -1; Ba CapD inh: 0.26

What do the screens show for `CCOc1ccccc1NC(=O)CSc1ncnc2ccccc12`?
AID504770: -0.35; Ba CapD inh: 0.53

What do the screens show for `Cc1ccc(OCCn2c(=O)sc3ccccc32)cc1`?
AID504770: -0.5; Ba CapD inh: -0.28

The last 3 compounds of the part before lead into the next.
How did CCCN1CCC(NC(=S)NCCOC)CC1 do in these assays?
AID504770: -1; Ba CapD inh: 0.26

What do the screens show for `CCOc1ccccc1NC(=O)CSc1ncnc2ccccc12`?
AID504770: -0.35; Ba CapD inh: 0.53

What do the screens show for `Cc1ccc(OCCn2c(=O)sc3ccccc32)cc1`?
AID504770: -0.5; Ba CapD inh: -0.28

What do the screens show for `O=C(NCc1ccccc1)c1cnn2c(C(F)(F)F)cc(-c3ccco3)nc12`?
AID504770: -0.8; Ba CapD inh: 0.42

Results for O=C(NCCn1ccc2ccccc21)c1ccc(S(=O)(=O)N2CCCC2)cc1 ?
AID504770: 1.2; Ba CapD inh: 0.35

How did CCC(C)NCC(=O)Nc1ccc2c(c1)c1ccccc1n2CC (centres undefined) do in these assays?
AID504770: 0.25

How did COc1ccc(N2CCN(S(C)(=O)=O)CC2)cc1 do in these assays?
AID504770: 0.6

How did CC(C)N(C(=O)COc1ncnc2ccc(Br)cc12)c1ccccc1 do in these assays?
AID504770: 0.3

What do the screens show for `CC(C)(C)N1CC(CO)OC1c1ccccc1` (centres undefined)?
AID504770: -0.4; Ba CapD inh: -0.07

What do the screens show for `OCC1CC=C(Cl)CC1CO` (centres undefined)?
AID504770: -0.85; Ba CapD inh: -0.14

Results for O=C(N1CCOCC1)C(F)(F)F ?
AID504770: -0.7; Ba CapD inh: -0.89

What do the screens show for `O=[N+]([O-])c1ccc(-c2nc(Nc3ccc(O)cc3)c3ccccc3n2)cc1`?
Ba CapD inh: -0.72

How did CCCNC(=O)c1cc2c(=O)n3cccc(C)c3nc2s1 do in these assays?
AID504770: -0.25; Ba CapD inh: 1.2

Results for COCCn1c(C)cc(/C=C(\C#N)C(=O)OCc2cc(=O)oc3cc4c(cc23)CCC4)c1C ?
AID504770: 0.1

How did COc1ccc(NC(=O)C2CC(C)=C(C)CC2C(=O)O)c(N2CCOCC2)n1 (centres undefined) do in these assays?
AID504770: 0.95; Ba CapD inh: 0.36

Results for CSc1nc2ccc3nc(NC(=O)c4ccc(S(=O)(=O)N5CCOCC5)cc4)sc3c2s1 ?
Ba CapD inh: -0.12

What do the screens show for `CN(C)C(=O)CSc1nnc(-c2cccc(F)c2)n1-c1ccccc1`?
AID504770: 0.55; Ba CapD inh: 0.21

Results for COc1ccc(C2=NN(c3ccccc3)C(c3ccc(C)o3)C2)c(OC)c1 (centres undefined) ?
Ba CapD inh: 61

How did O=C(Nc1ccccc1Cl)c1cc(S(=O)(=O)N2CCN(c3ccccc3Cl)CC2)ccc1F do in these assays?
Ba CapD inh: -0.3

How did CC(=O)NC1=NN(C(C)=O)C2(S1)C(=O)N(Cc1ccccc1)c1ccccc12 (centres undefined) do in these assays?
AID504770: 0.25; Ba CapD inh: 0.45

What do the screens show for `COC(=O)c1c(C)oc2ccc(N(C(=O)c3ccc([N+](=O)[O-])cc3)S(=O)(=O)c3ccc(C)cc3)cc12`?
Ba CapD inh: -0.53

How did COC(=O)/C=C1/NC(=O)CS1 do in these assays?
AID504770: 0.55; Ba CapD inh: 0.86

What do the screens show for `Fc1ccc(CNCc2cccnc2)cc1`?
AID504770: 0.45; Ba CapD inh: 0.32

Results for O=C(c1nn2c(c1Br)NC(c1ccco1)CC2C(F)(F)F)N1CCN(Cc2ccccc2)CC1 (centres undefined) ?
Ba CapD inh: 0.17

What do the screens show for `Cc1[nH]nc2oc(=O)c(Cl)c(C)c12`?
AID504770: -0.75; Ba CapD inh: 27

How did Cc1ccc(S(=O)(=O)N(C)C2CCCCC2)cc1C do in these assays?
AID504770: -0.9

What do the screens show for `O=C(CSc1nnc2ccccn12)NCCc1ccccc1`?
AID504770: 1.6; Ba CapD inh: 0.16

How did COc1ccc(S(=O)(=O)N(C)CC(=O)NCc2ccc3c(c2)OCO3)cc1 do in these assays?
AID504770: 0.3

Results for CCc1ccc2c(CC(=O)N3CCN(S(=O)(=O)c4cccs4)CC3)coc2c1 ?
AID504770: -0.05

Results for COc1ccccc1NC(=O)c1c(NC(=O)c2cccc(Br)c2)sc2c1CCCCC2 ?
Ba CapD inh: -0.095

What do the screens show for `Cc1cc(Cl)ccc1OC(C)C(=O)Nc1ccc2c(c1)OCO2` (centres undefined)?
AID504770: 2.2; Ba CapD inh: -0.25

Results for CN(C)S(=O)(=O)c1cccc(CSc2nnnn2-c2ccccc2)c1 ?
AID504770: 0

What do the screens show for `CCCC1(C(=O)OCC)CC(CSC(=N)N)OC1=O` (centres undefined)?
AID504770: -0.55; Ba CapD inh: -0.54

How did COc1ccc(OC)c(/C=N/c2ncn[nH]2)c1 do in these assays?
AID504770: 1.6

Results for C=CCC(C(=O)N1CCc2ccccc21)C(=O)N1CCc2ccccc21 ?
AID504770: -0.45; Ba CapD inh: -0.3

What do the screens show for `CC(=O)N1c2ccc(F)cc2C(C)CC12CCCC2` (centres undefined)?
AID504770: -0.2; Ba CapD inh: 0.53

Results for O=C(c1cc2c(s1)-c1ccccc1OC2)N1CCCCC1 ?
AID504770: -0.35; Ba CapD inh: 56

Results for CCOC(=O)Cn1c(C)cc(=O)c2cccc(C)c21 ?
AID504770: -0.75; Ba CapD inh: 6.2

What do the screens show for `CCOC(=O)C1C(=O)C=C(c2ccco2)CC1c1ccc(N(C)C)cc1` (centres undefined)?
AID504770: 1.8; Ba CapD inh: 0.57

How did CNC(=O)c1ccccc1NC(=O)C1=CSCCO1 do in these assays?
AID504770: -0.35; Ba CapD inh: -0.53

Results for Fc1ccc(-c2nnc(C3CCN(Cc4ccccc4Cl)CC3)o2)cc1 ?
Ba CapD inh: -0.12

What do the screens show for `CC(C)(O)C(=O)CCc1ccccc1`?
AID504770: -1.4; Ba CapD inh: 0.025

What do the screens show for `S=c1sc2c(N3CCN(C(c4ccccc4)c4ccc(Cl)cc4)CC3)ncnc2n1-c1ccccc1` (centres undefined)?
Ba CapD inh: -0.29

Results for Cn1c(=O)oc2cc(S(=O)(=O)CCC(=O)O)ccc21 ?
AID504770: 1.8

How did O=C(Nc1ccc(Cl)cn1)c1ccc2c(c1)OCCO2 do in these assays?
Ba CapD inh: 0.34

How did O=C(CSc1nnc(CN2CCCCC2)o1)Nc1c(Cl)cc(Cl)cc1C(=O)O do in these assays?
AID504770: 1.5

What do the screens show for `O=C(CSc1nnc(CN2C(=O)c3cccc4cccc(c34)C2=O)n1-c1ccccc1)NCCCN1CCOCC1`?
Ba CapD inh: 14

What do the screens show for `O=C(/C=C/Nc1ccc(F)cc1)c1ccc(OCc2c(F)cccc2Cl)cc1`?
Ba CapD inh: 0.48

Results for CN(C)C(=O)CCCOc1ccccc1 ?
AID504770: -1.1; Ba CapD inh: 0.045

How did Cc1cc2c(cc(C(=O)OC(C(=O)NC3CCCCC3)C(C)C)n2C)o1 (centres undefined) do in these assays?
AID504770: 0.4
